Bioassay records (PubChem)
Anthrax LT inh = blocks cellular internalization of anthrax lethal toxin; Cells, anthrax lethal toxin internalization, FRET ratio (460/530); Potency, µM (series often up to 40 µM), for the others: at the highest dose activity change, negative = inhibition, usual class: inhibitors; hit rate 0.67% among 70,000; AID 912; active = well fitted falling ratio curve with the 530 nm signal flat; inconclusive = other ratio curves, or a change in one channel alone; inactive = flat curves in the ratio and both channels; the % refers to the ratio; also: % is scaled to controls: 0 for no effect and ±100 for the full control effect; nearly all actives have a fitted effect of over 50% in size; tested in ME-180 cells; beta-lactamase reporter
SmPrx2 inh = blocks S. mansoni peroxiredoxin 2 enzymatic activity | Potency, µM | hit rate 0.07% among 65,000 | S. mansoni Prx2 activity coupled to TGR/GSH (TGR is thioredoxin glutathione reductase), NADPH fluorescence loss, qHTS; some inactives read as strong as hits; active means full or partial inhibition curve with a strong effect at the top dose; inconclusive means weaker partial or single-point curve; inactive means no accepted curve; also: series up to 57 µM; many of its hits are not listed in these tables
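Enzyme mix: 100 uM NADPH, 25 nM TGR, 700 uM GSH, 50 nM Prx2 in 100 mM phosphate pH 7.4, 10 mM EDTA, 0.01% Tween-20. 15 min RT with compound; NADPH/GSH added, H2O2 starts reaction; NADPH fluorescence read 8 min.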
Starred values were filed as active, the others as inactive; u = inconclusive; x = no result given; & = joins results of further samples; [ ] = another dose, or the depositor's remark. Potency is read from the fitted curve at half-maximal effect.

The line under a structure holds: Anthrax LT inh, SmPrx2 inh
- CC(C)CCn1c(=O)c2ccccc2n2c(CN3C(=O)NC4(CCC(C)CC4)C3=O)nnc12 (configuration not stated)
→ 11%, >57
- O=c1c2[nH]c3ccccc3c2ncn1CCCn1ccnc1
→ u, >57
- CCOc1ccc(/C(=N\O)C(C)NO)cc1 (configuration not stated)
→ 5%, x
- c1ccc2c(NC3CCNCC3)nc(-c3ccoc3)nc2c1
→ u, >57
- N#Cc1cccc(NC(=O)N2CCCC3(CCN(C(=O)Oc4ccccc4)CC3)C2)c1
→ -24%, >57
- CCOc1cccc2cc(-c3cn4cc(C)ccc4n3)c(=O)oc12
→ 4%, >57
- O=C1c2cccnc2C(=O)N1Cc1ccco1
→ 4%, >57
- Cc1c(C)n(C)c2ccc(C(=O)NCc3cccs3)cc12
→ u, >57
- CC(C)(CNC(=O)c1cc2ccccc2o1)N1CCOCC1
→ -3%, >57
- COCCN1Cc2cccc(C(=O)Nc3ccc4c(c3)OCCO4)c2C1=O
→ 4%, >57
- Nc1nnc2c(n1)CCCC2
→ x, >57
- CCOC(=O)c1ccc(NC(=O)CSc2nnc(Cc3cccs3)n2C)cc1
→ u, >57
- COCC(=O)N(CCc1ccc(OC)c(OC)c1)Cc1nc2ccccc2c(=O)[nH]1
→ -1%, >57
- Cc1ccc(Cn2c(=O)cc(C(=O)O)c3ccccc32)cc1
→ u, >57
- CC(C)c1ccc(NC(=O)C(c2ccc3c(c2)OCO3)N2CCC3(CC2)OCCO3)cc1 (configuration not stated)
→ -8%, >57
- COc1ccc(C)cc1NC(=O)C1CCCN(S(=O)(=O)c2c(C)noc2/C=C/N(C)C)C1 (configuration not stated)
→ -10%, >57
- CCOC(=O)c1sc(NC(=O)C2CC=CCC2C(=O)O)nc1C (configuration not stated)
→ 11%, x
- CCOC(=O)CCN1C(=O)[C@H]2[C@H]3[C@H](O)[C@H](O)C/C(=N/NC(=O)OCc4ccc(OC)cc4)[C@@H]3CC[C@@H]2C1=O
→ -4%[8 µM], x
- COC(=O)c1c(-c2ccco2)csc1NC(=O)C1CC=CCC1C(=O)O (configuration not stated)
→ 1%, >57
- CN(C)CCNc1nc2c(c(=O)[nH]c(=O)n2C)n1CC(O)COc1ccc(Cl)cc1 (configuration not stated)
→ 3%, >57
- CCOC(=O)C1CCN(S(=O)(=O)c2ccc(C(=O)OC)cc2)CC1
→ -7%, >57
- COc1ccc(Cl)c(NC(=O)Nc2c(C)n(-c3ccccc3)c(=O)n2C)c1
→ 15%, >57
- COc1ccc(-c2nc3cnc(N(C)C)nc3n(Cc3cccs3)c2=O)cc1
→ u, >57
- CCOC(=O)c1cc(NC(=O)N2CCCc3ccccc32)c(C)nc1C
→ -1%, >57
- CC(C)Oc1c(Cl)cc(CNC(C)(C)CO)cc1Cl
→ -9%, >57
- O=C(NC1CCCCCC1)C1CCN(C(=O)Cc2ccccc2)CC1
→ 1%, x
- Cc1nn(C)c(C)c1S(=O)(=O)N1CCCC(C(=O)NCC2COc3ccccc3O2)C1 (configuration not stated)
→ -5%, >57
- COc1ccc(-c2csc(N(CC3CCCO3)C(=O)c3cccs3)n2)cc1 (configuration not stated)
→ -26%, >57
- CCc1cccc(NC(=O)c2ccc(NS(=O)(=O)c3c(C)noc3C)cc2)c1
→ -11%, >57
- C=CCNC(=O)CCCCCNS(=O)(=O)c1ccc(OC)cc1
→ -9%, >57
- O=C(Cn1cnc2ccccc2c1=O)NCC(=O)N1CCC2(CC1)OCCO2
→ -5%, >57
- CCC1(C)Cc2c(C#N)c(N)n(N)c(=S)c2CO1 (configuration not stated)
→ 9%, >57
- COc1ccc2c(c1)c(C(=O)OCCN(C)C)c(C)n2C
→ x, >57
- N#CCSc1nnc2sc3ccccc3n12
→ -11%, >57
- CC(C)COC(=O)NCCOC(=O)Nc1cccc(Cl)c1
→ -6%, >57
- O=C(OCC(=O)N1c2ccccc2Sc2ccccc21)C1CC(=O)N(Cc2ccco2)C1 (configuration not stated)
→ 9%, >57
- CCN(CC)C(=O)C1CC(c2ccc(OC)cc2)=NO1 (configuration not stated)
→ 5%, >57
- COc1ccc(-c2nc3nc(C)cc(C)n3n2)cc1
→ 18%, >57
- CCOC(=O)C1C(=O)NC(N2CCCCC2)=NC1c1ccco1 (configuration not stated)
→ 2%, >57
- Cc1cccnc1NCC(O)COc1ccccc1 (configuration not stated)
→ u, >57
- COc1cc(OC)cc(C(=O)Nn2c(C)nc3ccccc3c2=O)c1
→ -8%, >57
- CCOc1ccc(NS(=O)(=O)c2ccc3[nH]cc(C(=O)NCC4CCCO4)c(=O)c3c2)cc1 (configuration not stated)
→ 19%, >57
- CC(=O)c1c(C)[nH]c(C(=O)N2c3ccccc3CC2C)c1C (configuration not stated)
→ -3%, >57
- COCC(=O)NC(c1ccccc1)c1ccccc1
→ -8%, >57
- Cc1nc2c(C(=O)NCc3ccccc3)c[nH]n2c(=O)c1Cl
→ -10%, >57
- N=C(N)SCCc1cnc[nH]1
→ -19%&-3%, >26&>57
- CN1CCN(c2ncc3nc(-c4cccc(C#N)c4)c(=O)n(CCc4ccccc4)c3n2)CC1
→ u, >57
- COc1ccc(NC(=O)CCNS(=O)(=O)c2ccc3c(c2)c(=O)n(C)c(=O)n3C)cc1
→ -5%, >57
- COc1ccc(C2(O)CCN(Cc3nnnn3Cc3ccc(C)cc3)CC2)cc1
→ -4%, >57
- CC(C)C[C@H](NC(=O)NC(C)C)C(=O)O
→ -4%, >57
- CC1(C)CC(C)(O)P(=O)(c2ccccc2)O1 (configuration not stated)
→ u, >57
- CC1Cc2ccccc2N1C(=O)c1cnsn1 (configuration not stated)
→ 14%, >57
- c1cc2c3c(cccc3c1)C(N1CCCCC1)=N2
→ -40%, x
- COc1ccc(CCNC(=O)C2CCN(S(=O)(=O)c3cc(OC)ccc3OC)CC2)cc1
→ 0%, >57
- Cc1cc2nc(-c3cccnc3SCC(=O)NCc3ccco3)[nH]c2cc1C
→ 13%, >57
- CCOc1ccc(Nc2cc(C)nc3nc(C)nn23)cc1
→ -4%, >57
- O=C(CN1CCC(n2nnc3cc(C(F)(F)F)ccc32)CC1)NCc1cccs1
→ -16%, >57
- COc1ccc2nc(NC(=O)c3cnccn3)sc2c1
→ -14%, >57
- O=C(Cn1nnc(-c2ccc(S(=O)(=O)N3CCCC3)cc2)n1)Nc1ccccc1-n1cccc1
→ u, >57
- CN1C(=O)N(C)C2(c3ccccc3)NC(=O)NC12c1ccccc1 (configuration not stated)
→ -4%, >57

As entered above:
SmPrx2 inh result of CC1(C)CC(C)(O)P(=O)(c2ccccc2)O1 (configuration not stated) = >57
SmPrx2 inh result of O=C(Cn1cnc2ccccc2c1=O)NCC(=O)N1CCC2(CC1)OCCO2 = >57
SmPrx2 inh result of COc1ccc(CCNC(=O)C2CCN(S(=O)(=O)c3cc(OC)ccc3OC)CC2)cc1 = >57
SmPrx2 inh result of O=C(Cn1nnc(-c2ccc(S(=O)(=O)N3CCCC3)cc2)n1)Nc1ccccc1-n1cccc1 = >57
Anthrax LT inh result of COc1ccc(NC(=O)CCNS(=O)(=O)c2ccc3c(c2)c(=O)n(C)c(=O)n3C)cc1 = -5%

Complete entries from above. Screens in order: Anthrax LT inh | SmPrx2 inh
Listed for CCOC(=O)c1ccc(NC(=O)CSc2nnc(Cc3cccs3)n2C)cc1 → u | >57
Listed for COc1ccc(Cl)c(NC(=O)Nc2c(C)n(-c3ccccc3)c(=O)n2C)c1 → 15% | >57
Listed for CCOc1ccc(Nc2cc(C)nc3nc(C)nn23)cc1 → -4% | >57

The list continues:
The line under a structure holds: Anthrax LT inh, SmPrx2 inh
- Cc1c(S(=O)(=O)Nc2ccc3c(c2)OCCO3)c(=O)n(C)c(=O)n1C
→ 13%, >57
- O=C(Cc1c(F)cccc1Cl)NCC1CCCO1 (configuration not stated)
→ 9%, >57
- CN1CCN(C(=O)c2cc3c(ccc4ccccc43)oc2=O)CC1
→ u, >57
- CCOc1ccc2c(c1)sc1nc(C(=O)OC)cc(=O)n12
→ 8%, >57
- CN(C1CCCCC1)S(=O)(=O)c1ccc(S(=O)(=O)N2CCCC2)cc1
→ -14%, >57
- O=C(C1CCC1)N(CCc1ccccc1)Cc1nc2ccccc2c(=O)[nH]1
→ 8%, >57
- O=C(Cn1cnc2c(cnn2-c2ccc(F)cc2)c1=O)OCc1ccccc1
→ 1%, >57
- c1ccc(Cn2nnnc2C(c2cccs2)N2CCCCCC2)cc1 (configuration not stated)
→ u, >57
- Cc1ccccc1-n1c(Cn2c(=O)sc3ccccc32)nnc1SCC(=O)Nc1nccs1
→ 19%, >57
- CC(C)C(=O)Nc1nnn(C)n1
→ u, >57
- CN(C(=O)CN1CCC(NC(=O)C2CCCCC2)CC1)C1CCCCC1
→ -12%, >57
- CC1=C(C(=O)OC(C)C)C(C)C(C(=O)OC(C)C)=C(C)N1
→ -13%, >57
- CC(C)Oc1ccc(C2NC(=O)NC2=O)cc1 (configuration not stated)
→ 8%, >57
- Fc1cccc(-c2cc3nc4c(c(N5CCOCC5)n3n2)CCCC4)c1
→ -27%, >57
- CCc1cc2c(nc1CC)CCN(CC/C(C)=N/OC[C@@H](C)[C@H](OCc1ccccc1)C(C)C)C2
→ 5%[8 µM], x
- CC(C)C1=C2CCCCC2NC(=O)N1 (configuration not stated)
→ -8%, >57
- CCOC(=O)C1CCCN(c2c(NCCCN3CCCC(C)C3)c(=O)c2=O)C1 (configuration not stated)
→ -21%, >57
- COc1cccc(Oc2cn[nH]c2-c2ccc(O)cc2O)c1
→ -14%, >57
- CCCCn1c(SCC(=O)N2CC(=O)Nc3ccccc32)nnc1-c1ccoc1C
→ -22%, >57
- CCNc1nc(NCC)nc(OCCNS(=O)(=O)c2cc(C)ccc2C)n1
→ -22%, >57
- O=C(NC[P+](=O)O)OCc1ccccc1
→ -16%, >57
- CCCc1cc(=O)n2[nH]c(C)nc2n1
→ -10%, >57
- COCCCn1c2nc3ccccc3nc2c2c(=O)n(-c3ccccc3OC)cnc21
→ 3%, >57
- O=C(CSCSCC(=O)NCC1CCCO1)NCC1CCCO1 (configuration not stated)
→ -2%, >57
- O=c1c(-c2cccs2)nc2cnc(N3CCNCC3)nc2n1C1CC1
→ u, >57
- COc1cccc(C(CC(=O)NCCN2CCOCC2)NS(=O)(=O)c2ccc(C)cc2)c1OC (configuration not stated)
→ 0%, >57
- O=C(COc1ccccc1)Nc1nn[nH]n1
→ -21%, >57
- CCCn1nc(NS(C)(=O)=O)c2cc3cccc(C)c3nc21
→ u, >57
- COc1cccc(-c2nc(S(=O)(=O)c3ccccc3)c(N3CCOCC3)o2)c1
→ 1%, >57
- C=C1CSc2nc(=O)c3c4c(sc3n21)CCCC4
→ u, >57
- CCOC(=O)c1c(C)[nH]c(C(=O)COC(=O)c2ccccc2NC(=O)c2ccco2)c1C
→ 18%, >57
- Cc1occc1C(=O)Nc1cccc(C(=O)NCc2ccccc2)c1
→ -14%, >57
- O=C1CC(c2ccccc2)CC(O)=C1C=NCCCN1CCOCC1 (configuration not stated)
→ 6%, >57
- CCOC(=O)C1CCN(C(=O)C2CCN(S(=O)(=O)c3c(C)noc3C)CC2)CC1
→ 5%, >57
- Cn1c(=O)cc(OCC(=O)NCCCN2CCN(c3cccc(Cl)c3)CC2)c2ccccc21
→ u, >57
- O=c1cc(-c2ccncc2)oc2ccccc12
→ u, x
- OC1(c2cccnc2)CC2CCC(C1)N2Cc1nnnn1Cc1ccccc1 (configuration not stated)
→ -5%, >57
- O=C1C(Cl)=C(NC2CCc3ccccc32)C(=O)c2ncccc21 (configuration not stated)
→ u, x
- CCOC(=O)c1c(NS(C)(=O)=O)sc2c1CCC(C)C2 (configuration not stated)
→ -6%, x
- CCCOC(=O)c1cccc(NC(=O)c2cccnc2)c1
→ -14%, x
- CCn1nc(CC(=O)Nc2nnc(CC(=O)N3CCCC3)s2)c2ccccc2c1=O
→ -6%, >57
- CC1CCCCC1NC(=O)CSc1nc2ccccc2c(=O)n1Cc1ccco1 (configuration not stated)
→ 22%, >57
- COc1ccc(-n2c(SCC(=O)NCc3cccs3)nnc2-c2ccoc2C)cc1
→ 8%, >57
- Cc1c(C(=O)NC2CCCCC2)sc2nc3ccc(N)cc3n12
→ u, x
- COc1ccccc1CNC(=O)CCCn1c(=O)c2ccccc2n(CC(=O)NC2CCCC2)c1=O
→ -13%, >57
- Cc1ccc(S(=O)(=O)Cc2csc(N)n2)cc1
→ 2%, >57
- O=C(C1CCCCC1)N1CCC(c2nc3c(nnn3Cc3c(F)cccc3Cl)c(=O)[nH]2)CC1
→ -5%, >57
- COc1ccc(-c2nc(CSCC(=O)N3CCc4ccccc43)c(C)o2)cc1OC
→ u, >57
- O=C(NCC(=O)N(CC1CCCO1)C(C(=O)NC1CCCCC1)c1ccc(F)cc1)c1ccco1 (configuration not stated)
→ 9%, >57
- CCc1ccc(NS(=O)(=O)c2cc(OC)ccc2OC)cc1
→ -27%, x
- O=S(NCc1ccco1)C12CC3CC(CC(C3)C1)C2 (configuration not stated)
→ 12%, >57
- CCOC(=O)c1[nH]c2c(c1C)C(=O)CC(c1ccc(F)cc1)C2 (configuration not stated)
→ u, >57
- Cc1nn(-c2ccccc2)c2[nH]c(=O)c(CNCCN3CCOCC3)cc12
→ 12%, >57
- CC(=O)NC12CC3CC(C1)CC(C(=O)OCC(=O)Nc1ncc(Cl)c(C)c1Cl)(C3)C2
→ -16%, >57
- COC(=O)CCC(=O)Nc1cccc(Cl)c1
→ -6%, >57
- CCCn1c(SCC(=O)NCc2ccco2)nnc1C(C)C
→ 0%, >57
- COc1ccccc1NC(=O)CN1CCC(n2c(C)nc3cc(F)ccc32)CC1
→ u, >57

Not all compounds are listed, so the mix of outcomes need not match the whole.
